MT1-MMP act inh: blockers of MT1-MMP proenzyme processing, primary screen, HT1080 RFP-PRO-GFP cells, GFP/RFP fluorescence; Matrix metalloproteinase-14 (Homo sapiens), P50281; GFP/RFP ratio fluorescence, overnight; percent of plate control window, DMSO zero; GFP/RFP ratio change, % at 20 µM; 360,000 compounds, 0.061% hits; AID 651647, 2012;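 active = GFP/RFP ratio change of at least 30% with cell ATP level not reduced by more than half and red fluorescence within 50% of control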; note: strong numbers were not always called active
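Assay system: RFP-PRO-GFP reporter HT1080 cells; read-out basis: GFP/RFP fluorescence ratio; benchmarks: DMSO wells and RFP-L50D-GFP cells; doses: 20 µM single dose, 1% DMSO; schedule: overnight cell settling, then overnight compound exposure, 37 °C, 5% CO2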
eIF4H FP inh: human eIF4H binding inhibitors, primary screen, translation initiation inhibitor project, biochemical, uHTS, fluorescence polarization. inhibition, % at 35 µM. eIF4H fluorescence polarization binding assay. AID 2012, 2009. 290,000 compounds, 0.94% hits;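 active = 50% or more with normal probe brightness, or confirmed in later tests; inconclusive = above 50% with abnormal brightness, or retests that disagree; inactive = below 50% or failed in later tests; about a fifth of its hits are not listed in these tables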;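 note: calls also rest on retests at 20 µM and on dose response follow-up; 0% = protein and probe with vehicle and 100% = probe without protein; strong numbers were not always called active; many hits fall short of the cut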
HIV Env fusion: inhibitors of HIV-1 Env-driven cell-cell fusion, primary screen, HeLa-JRFL effector, CEM21 target cells, luciferase | inhibition, % at 12.3 µM | 360,000 compounds, 1.1% hits;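 active = mean replicate inhibition score of at least 50 and every replicate individually at or above 50; inconclusive = only one of the two criteria met; inactive = mean below 50 and not all replicates reaching 50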;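 note: 0% = plate neutral controls and 100% = maraviroc near 300 nM; one replicate is shown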
CSC inhib: cancer stem cell viability inhibitors, primary screen, luminescence; inhibition, % at 7.5 µM; AID 2717, 2010; 300,000 compounds, 1.1% hits; cancer stem cell-like cells viability;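 active = mean at 75% or more and at least half the replicates too; inconclusive = mean and replicates disagree; tested in HMLE shEcad cells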;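 note: 0% = median of negative and 100% = median of positive control wells; the first replicate is given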
UUG fidelity: modulators of yeast start codon fidelity, primary screen, whole organism, S. cerevisiae, single point, plate reader; S. cerevisiae UUG-firefly luciferase reporter, luminescence/redox ratio; activity score, % at 18.7 µM; 350,000 compounds, 0.13% hits;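 active = replicate mean at a twofold rise or more, about +100% in these data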;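 note: firefly luciferase made from a UUG start codon reports start codon fidelity; reporter light over untreated wells divided by growth signal over untreated wells; some hits fall short of that in this replicate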
Rce1 inhib: yeast Rce1p protease inhibitors, primary screen, biochemical, fluorescence, cell-free homogeneous | 290,000 compounds, 0.27% hits | yeast membranes, quenched prenylated peptide cleavage fluorescence | calls only | CAAX prenyl protease 2 (Saccharomyces cerevisiae (strain ATCC 204508 / S288c)), Q03530;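 active = fall in fluorescence gain of 50% or more versus controls, with final raw signal at or below 3038400; inconclusive = same 50% fall but final raw signal above 3038400; inactive = fall in fluorescence gain under 50%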;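 note: plate controls were neutral control wells for no effect and wells lacking membranes for full effect; tested at 10 µM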
Target sequence (Q03530 whole entry, looked up): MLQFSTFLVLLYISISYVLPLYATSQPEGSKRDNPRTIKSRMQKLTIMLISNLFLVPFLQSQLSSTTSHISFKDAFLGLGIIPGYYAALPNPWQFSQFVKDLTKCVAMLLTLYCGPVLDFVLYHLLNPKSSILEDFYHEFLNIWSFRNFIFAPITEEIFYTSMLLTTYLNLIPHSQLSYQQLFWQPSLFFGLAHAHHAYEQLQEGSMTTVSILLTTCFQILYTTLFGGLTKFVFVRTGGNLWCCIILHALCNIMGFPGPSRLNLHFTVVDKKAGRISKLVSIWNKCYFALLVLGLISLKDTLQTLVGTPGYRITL
PABP polyA inh: PABP poly(A) RNA binding inhibitors, primary screen, biochemical, fluorescence polarization, uHTS | Polyadenylate-binding protein 1 (Homo sapiens), P11940 | inhibition, % at 35 µM | AID 2014, 2009 | 290,000 compounds, 1% hits;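 active = 50% or more with normal probe brightness, or confirmed in later tests; inconclusive = above 50% with abnormal brightness, or retests that disagree; inactive = below 50% or failed in later tests; about a fifth of its hits are not listed in these tables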;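 note: calls also rest on retests at 20 µM and on dose response follow-up; controls were probe without protein and protein plus probe with vehicle; some compounds called inactive have numbers as strong as hits; many hits fall short of the cut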
Target sequence (P11940 whole entry, looked up): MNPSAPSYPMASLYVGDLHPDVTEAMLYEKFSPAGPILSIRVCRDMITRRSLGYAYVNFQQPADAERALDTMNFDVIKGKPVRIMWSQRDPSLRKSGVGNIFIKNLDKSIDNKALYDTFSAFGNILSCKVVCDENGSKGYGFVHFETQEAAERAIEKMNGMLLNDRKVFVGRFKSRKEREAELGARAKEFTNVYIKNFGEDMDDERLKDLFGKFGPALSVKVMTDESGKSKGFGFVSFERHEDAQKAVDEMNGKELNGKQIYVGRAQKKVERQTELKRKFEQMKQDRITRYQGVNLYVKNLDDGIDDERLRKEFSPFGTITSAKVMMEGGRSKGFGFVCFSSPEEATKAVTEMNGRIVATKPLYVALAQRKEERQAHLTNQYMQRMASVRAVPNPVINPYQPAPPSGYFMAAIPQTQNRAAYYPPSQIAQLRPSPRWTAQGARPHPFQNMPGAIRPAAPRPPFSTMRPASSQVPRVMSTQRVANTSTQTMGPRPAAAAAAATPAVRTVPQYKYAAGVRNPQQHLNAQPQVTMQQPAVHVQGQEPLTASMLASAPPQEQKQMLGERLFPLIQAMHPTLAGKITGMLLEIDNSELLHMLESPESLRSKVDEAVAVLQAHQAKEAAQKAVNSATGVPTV
eIF4H FP inh retest: also measured in eIF4H FP inh; calls as there; inhibition, %; compound at 20 µM; confirmation average;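 mean of two retest wells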
PABP polyA inh retest: recorded beside PABP polyA inh, whose call it bears; inhibition, %; compound at 20 µM; confirmation repeats;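 mean of two retest wells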
MT1-MMP act inh RFP: second read-out of MT1-MMP act inh, no call of its own (marks repeat the call); RFP signal change, %; measured here: RFP expression control read;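 0 = vehicle wells; hits needed this value within 50% of zero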
* marks the source's active call; other numbers are inactive results; i = inactive; ? = inconclusive; · = no result given; + = active, no number.

The opening two entries (preview)
SMILES | MT1-MMP act inh | MT1-MMP act inh RFP | eIF4H FP inh | HIV Env fusion | CSC inhib | UUG fidelity | Rce1 inhib | PABP polyA inh | others
CN(c1ccc(C(=O)NCc2ccc3c(c2)OCO3)cc1)S(C)(=O)=O | -2.1 | 2.8 | 0.3 | -3.9 | -9.1 | -3.1 | i | -1.5
Cn1c(CN2CCOCC2)c(C#N)c2ccccc21 | 11.3 | 1.7 | -0.6 | 5.1 | -15.0 | 8.3 | + | -2.3

Main list (from the top)
SMILES | MT1-MMP act inh | MT1-MMP act inh RFP | eIF4H FP inh | HIV Env fusion | CSC inhib | UUG fidelity | Rce1 inhib | PABP polyA inh | others
CN(c1ccc(C(=O)NCc2ccc3c(c2)OCO3)cc1)S(C)(=O)=O | -2.1 | 2.8 | 0.3 | -3.9 | -9.1 | -3.1 | i | -1.5
Cn1c(CN2CCOCC2)c(C#N)c2ccccc21 | 11.3 | 1.7 | -0.6 | 5.1 | -15.0 | 8.3 | + | -2.3
O=C(O)CC(CN1C(=O)c2ccccc2C1=O)c1ccccc1 (stereo not given) | 1.6 | 6.6 | · | 3.7 | -5.0 | 3.3 | i | ·
CC(C)(C)OC(=O)NC(CC(=O)OCc1ccccc1)C(=O)O (stereo not given) | -2.1 | 3.2 | -0.3 | -3.4 | 5.4 | -18.7 | i | -6.3
O=C(c1ccc(F)cc1)[C@@H]1[C@@H](C(=O)c2ccccc2)[C@@]2(C(=O)Nc3ccccc32)[C@H]2c3ccccc3C=CN12 | · | · | 51.1* | · | 11.2 | 1.2 | i | 6.4 | eIF4H FP inh retest=79.9*;PABP polyA inh retest=29.0
O=C(CSc1oc(-c2ccccc2)nc1S(=O)(=O)c1ccc(F)cc1)NCC1CCCO1 (stereo not given) | -7.3 | -4.3 | 5.4 | -33.3 | -17.4 | -15.6 | i | 47.4
NS(=O)(=O)c1ccc(NC(=O)c2c(F)cccc2Cl)cc1 | 0.7 | -1.1 | -3.5 | -2.7 | -2.4 | -5.0 | i | -6.0
C(=C\CSc1ncn[nH]1)/CSc1ncn[nH]1 | -6.0 | 0.8 | 5.4 | -19.4 | -7.6 | 48.8 | i | -1.9
CC(=O)N1CCc2cc(Br)cc(S(=O)(=O)N3CCc4ccccc43)c21 | 1.8 | -1.2 | -2.3 | 17.7 | 8.6 | · | i | 1.4
COc1cc(C(=O)Nc2ccc3c(c2)nc(C)n3C)cc(OC)c1OC | -6.7 | -11.7 | 5.1 | -22.4 | 14.9 | -13.2 | i | -2.3
CC1CCN(S(=O)(=O)c2cc(C(=O)N3CCN(c4ccccc4)CC3)ccc2Br)CC1 | -4.6 | -31.4 | · | 72.1* | · | -7.1 | · | ·
Cc1cc(S(=O)(=O)Nc2nc(CN3CCOCC3)nc3sc4c(c23)CCC4)ccc1F | -2.5 | -4.7 | · | 6.7 | 20.9 | -6.1 | · | ·
COc1ccc(/C=N/NC(=O)c2cc3c(ccc4ccccc43)o2)cc1OC | -4.6 | 2.7 | -18.1 | -18.6 | -7.6 | 5.2 | i | -7.0
Cc1ccc(NC(=O)COC(=O)C2=COCCO2)cc1 | 7.6 | 6.8 | -13.4 | · | -13.4 | -14.5 | i | -11.8
COc1cccc(C2=NOC(C(=O)N3CCN(C(=O)c4ccco4)CC3)C2)c1 (stereo not given) | -0.5 | 1.4 | 7.3 | 0.4 | -14.5 | 9.5 | i | -14.2
O=C(Nc1ccc(C(=O)O)cc1)/C(=C/c1ccc2c(c1)OCO2)NC(=O)c1cccc(Br)c1 | 0.9 | 2.7 | -13.3 | 1.5 | · | -19.5 | i | 12.2
O=C(Cc1ccc(Cl)cc1)N1CCc2ccccc2C1 | 4.3 | 0.3 | · | -10.1 | 14.4 | 0.7 | i | ·
Cc1cc(C)c2nc(-c3cccnc3)cc(C(=O)Nc3ccc(S(=O)(=O)Nc4onc(C)c4C)cc3)c2c1 | 8.4 | -3.5 | 37.5 | 7.2 | -13.4 | · | i | -2.0
O=C(CN1CCOCC1)Nc1ccc(NC(=O)CN2CCOCC2)c(Cl)c1 | -1.1 | 0.2 | 3.1 | -13.8 | -1.0 | -16.1 | i | -1.1
CC(C)c1ccc(NC2CCCN(C(=O)c3cnsn3)C2)cc1 (stereo not given) | 0.0 | -4.3 | -0.1 | 4.7 | 50.1 | 5.7 | i | 11.6
CCCN1CCN(C(=O)Cn2nc(CC)n3c(cc4sccc43)c2=O)CC1 | 2.0 | 1.1 | 1.5 | 3.7 | -5.8 | -8.5 | i | -4.1
CCOC(=O)c1sc(NC(=O)CSc2n[nH]c(-c3ccc(Cl)cc3Cl)n2)c(C#N)c1C | -1.5 | -27.0 | -11.7 | -13.5 | 50.3 | -10.2 | i | 5.7
COc1cc2[nH]c(=S)nc(NCC3CCCO3)c2cc1OC (stereo not given) | 2.4 | -2.9 | 0.0 | -6.4 | 19.2 | -10.9 | i | 17.0
O=C(CC1Nc2ccccc2NC1=O)NCc1cccnc1 (stereo not given) | 3.4 | 3.8 | 1.2 | · | · | -0.8 | i | -1.0
CC1Sc2ccc(S(=O)(=O)CCC(=O)NCc3ccc(Cl)cc3)cc2NC1=O (stereo not given) | 0.3 | -8.5 | 6.1 | -2.4 | 5.0 | -0.9 | i | 9.1
Nc1nnc(SCC(=O)NCc2ccc3c(c2)OCO3)s1 | 4.2 | 4.4 | -1.6 | · | -8.7 | -17.3 | i | 9.0
CCOC(=O)CSc1nnc(-c2ccco2)n1-c1ccc(C)cc1 | 1.8 | 1.8 | -5.9 | -29.4 | -13.1 | -0.6 | i | -17.1
CCS(=O)(=O)N1CCCC(C(=O)NCCN2CCC(Cc3ccccc3)CC2)C1 (stereo not given) | -2.9 | -2.1 | 0.8 | · | 5.7 | -6.8 | i | 2.2
O=C(Cc1ccc(Br)cc1)NCCc1ccccc1 | 2.4 | -0.1 | · | -1.9 | -4.5 | -18.2 | i | ·
Cc1ccc(S(=O)(=O)N2CC=C(c3ccc(F)cc3)CC2)cc1 | 1.4 | -5.6 | 2.5 | 3.9 | 4.6 | · | i | 5.1
CCCCN(C(=O)c1cc(S(=O)(=O)N2CCCCC2)ccc1Cl)c1c(N)n(CC(C)C)c(=O)[nH]c1=O | -4.4 | -2.2 | · | -35.7 | · | -3.8 | · | ·
CSc1nnc(-c2ccccc2Cl)n1N | 1.2 | 2.0 | 5.3 | · | 14.9 | 6.9 | i | 9.8
Cc1ccc(/C=C/C(=O)NCc2ccccn2)o1 | 0.5 | 6.3 | 86.8 | · | · | · | i | 7.4 | eIF4H FP inh retest=9.4;PABP polyA inh retest=29.7
Cc1cc2c3c([nH]c2cc1S(=O)(=O)NCCCOC(C)C)CC(C)(C)CC3=O | 10.3 | -11.7 | 0.6 | 15.0 | -8.5 | -17.9 | i | 4.2
O=C(O)c1cccc(NC2=C(Cl)C(=O)c3ccccc3C2=O)c1 | -0.3 | -0.4 | 14.0 | -18.4 | · | -10.9 | · | -3.9
O=C(CSC1=NCCS1)N1CCc2ccccc21 | 1.3 | -0.5 | -9.0 | · | · | -29.3 | i | 40.3
CCOC(=O)c1cc2occc2n1Cc1c(F)cccc1Cl | -8.2 | 3.0 | 2.0 | -4.2 | -5.3 | -2.1 | i | -1.7
O=C(CSc1ccc2c(c1)OCCO2)Nc1ccc(Br)cn1 | 2.5 | 1.8 | -11.3 | 1.3 | · | -2.7 | i | 12.6
Cc1ccc(Cn2cccc(-c3nc4ccccc4s3)c2=O)cc1 | 7.3 | -10.4 | -7.7 | -36.6 | -1.0 | · | i | -5.8
Cc1noc(C)c1C(=O)Nc1ccccc1N1CCOCC1 | 1.2 | 1.4 | · | -19.2 | -10.0 | -9.7 | · | ·
Cc1nn(C)cc1CN(C)Cc1ccc(OCC(O)CN2CCCCC2)cc1 (stereo not given) | -3.9 | 0.8 | 3.1 | 14.2 | -9.7 | · | i | 32.2
CN(/C=C/C(=O)C(F)(F)C(F)(F)F)Cc1ccccc1 | 4.9 | 9.6 | -5.4 | -71.7 | 0.8 | -18.0 | i | 13.4
Cn1c(CNC(=O)c2ccco2)nnc1SCCOc1ccccc1 | -3.4 | -0.5 | -2.5 | -2.7 | · | -18.8 | i | 3.6
Cc1ccc(SCC(=O)NN2C(=O)c3ccccc3C2=O)cc1 | 0.5 | 0.6 | -8.0 | -0.6 | -16.3 | -3.6 | i | -5.4
COC(=O)C1=C(CCc2ccccc2)NC(=O)NC1c1ccc(C#N)cc1 (stereo not given) | -0.1 | -2.3 | · | -5.2 | 6.2 | 14.2 | i | ·
CCOc1cc(/C=C(\CC(=O)O)c2nc3ccccc3s2)ccc1OC | 0.9 | 1.7 | 3.7 | -13.4 | -23.1 | · | i | -9.3
COc1ccc(N(C)C(=O)CCS(=O)(=O)c2cccc3nonc23)c(OC)c1 | -2.0 | -9.8 | 1.1 | -14.9 | -15.8 | -9.0 | i | 13.0
Cc1ccc(/C=C/C(=O)Nc2cccc3ncccc23)o1 | -30.8 | 0.8 | 21.8 | · | · | -3.2 | i | -2.8
CC1(C)CC2(CC(C)(C(=O)CSc3nc4ccccc4s3)OC2=O)C(=O)O1 (stereo not given) | -1.1 | -0.6 | 1.6 | -12.0 | -7.7 | -6.0 | i | 3.0
COC(=O)c1ccc(CNC(=O)C2CCC(=O)N(Cc3ccccn3)C2)cc1 (stereo not given) | · | · | -7.4 | -2.7 | -1.2 | -2.2 | i | -8.0
(listing goes on)
SMILES | MT1-MMP act inh | MT1-MMP act inh RFP | eIF4H FP inh | HIV Env fusion | CSC inhib | UUG fidelity | Rce1 inhib | PABP polyA inh | others
COc1ccc(OCC(O)CN2CCCC2)cc1 (stereo not given) | 1.4 | 4.1 | 5.0 | -7.1 | -10.4 | -7.2 | i | -2.8
CCCCN(CC)C(=O)CSc1cc(=O)n(C)c2ccccc12 | 6.3 | -0.6 | -1.7 | -76.4 | -14.5 | -2.8 | i | -0.1
CC(NCC1COc2ccccc2O1)C(=O)NCc1ccccc1 (stereo not given) | 0.5 | 0.1 | 12.7 | 11.5 | -7.8 | -7.0 | i | 1.5
Cc1cccc2nc(-c3ccco3)c(Nc3ccc4c(c3)OCCO4)n12 | 1.3 | 0.4 | ? | 11.6 | -2.2 | · | i | -0.6
CC(=O)Nc1ccc(N(C(=O)Cc2cccs2)C(C(=O)NC2CCCC2)c2ccncc2)cc1 (stereo not given) | -0.7 | 1.5 | 44.3 | -8.0 | -8.0 | -10.8 | i | -1.3
O=C(CSc1nncn1-c1ccccn1)Nc1cccc(Cl)c1 | -5.7 | 4.2 | -2.5 | 2.2 | -4.6 | -19.7 | i | -2.2
CCn1c(O)c(N=NC(=O)CNc2ccc(C)cc2)c2ccccc21 | 8.1 | 3.5 | -37.9 | 0.3 | -5.9 | · | i | 0.4
Cc1cccc(OCC(=O)Nc2cc(Cl)ccc2-n2cncn2)c1C | -2.3 | -2.6 | · | -0.1 | -11.3 | -16.8 | i | ·
O=C(COc1ccccc1Br)NC1CCCC1 | -7.8 | -16.4 | -3.6 | 2.6 | 16.9 | 1.6 | i | -0.1

High-throughput results from PubChem BioAssay.

A portion of the library (hit frequency here may not be typical).
